Assay outcomes (PubChem)
VCAM-1 up imaging – boosters of cytokine-driven VCAM-1 levels – imaging, high-content imaging, pooled HUVEC, TNFa stimulus (AID 457); Pooled HUVEC, TNFa-induced VCAM-1 immunofluorescence imaging; hits of this screen are not shown here; calls only; 10,000 compounds, 0.2% hits;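 active means a top-ranked rise in VCAM-1 staining upheld on image or statistical review; inactive means the rest, including candidates rejected on review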;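 further: compounds tested at 5 µM in the well; cells exposed to compound for 24 hours before fixing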
FPRL1 binder – ligands of human FPRL1, also counter-screen for FPR ligands | inhibition, %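 (tested at 6.7 µM)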 | 24,000 compounds, 0.3% hits | FPRL1-expressing cells, fluorescent ligand binding inhibition, flow cytometry | P25090;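 further: 0% = buffer alone and 100% = receptor blocker peptide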
Target sequence (P25090 whole entry, looked up): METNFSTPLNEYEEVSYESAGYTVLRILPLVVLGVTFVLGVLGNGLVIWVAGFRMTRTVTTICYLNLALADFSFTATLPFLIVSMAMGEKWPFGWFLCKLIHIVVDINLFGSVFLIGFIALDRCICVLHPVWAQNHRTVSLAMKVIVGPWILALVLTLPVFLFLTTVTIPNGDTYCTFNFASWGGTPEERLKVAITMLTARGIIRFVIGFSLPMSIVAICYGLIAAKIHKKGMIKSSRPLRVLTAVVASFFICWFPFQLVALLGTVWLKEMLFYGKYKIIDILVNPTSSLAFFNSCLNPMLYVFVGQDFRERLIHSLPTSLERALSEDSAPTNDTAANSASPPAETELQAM
VCAM-1 imaging – suppression of endothelial VCAM-1 upregulation – imaging, high-content imaging, pooled HUVEC, TNFa stimulus (AID 456); one-dose inhibition, % at 5 µM; IC50 in µM for titrated hits; HUVEC TNFa-induced VCAM-1 surface expression, immunofluorescence imaging; numbers were filed only for top-ranked candidate wells; 10,000 compounds, 0.2% hits;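 active means top tenth filtered wells with inhibition above zero that passed visual or statistical confirmation; inactive means the rest, including hits rejected on review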;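 further: 0% = stimulated vehicle wells and 100% = unstimulated cells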
FPR binder – human FPR ligand, with FPRL1 counter-screen; inhibition, %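 (tested at 6.7 µM)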; FPR-expressing cells, fluorescent ligand binding, flow cytometry; P21462; 24,000 compounds, 0.74% hits; AID 440;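 further: 0% = buffer wells and 100% = receptor blocker peptide wells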
Target sequence (P21462 whole entry, looked up): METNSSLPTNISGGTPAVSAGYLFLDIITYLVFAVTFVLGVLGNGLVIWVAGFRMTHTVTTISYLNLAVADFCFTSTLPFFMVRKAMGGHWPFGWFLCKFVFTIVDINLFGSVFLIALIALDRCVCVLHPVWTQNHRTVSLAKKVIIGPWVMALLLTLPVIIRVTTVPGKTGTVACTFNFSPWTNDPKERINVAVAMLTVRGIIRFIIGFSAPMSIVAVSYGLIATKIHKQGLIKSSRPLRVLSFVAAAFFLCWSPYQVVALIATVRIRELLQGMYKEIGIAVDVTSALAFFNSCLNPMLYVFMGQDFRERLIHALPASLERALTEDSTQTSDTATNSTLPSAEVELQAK
VCAM-1 down – inhibitors of TNFa-induced VCAM-1 surface display, cell-based, plate reader, pooled HUVEC, TNFa stimulus (AID 454); HUVEC TNFa-induced VCAM-1 surface immunofluorescence, plate reader; numbers were filed only for top-ranked candidate wells; inhibition, % at 5 µM; 10,000 compounds, 0.2% hits;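 active means compound among top-ranked inhibitors of TNF-induced VCAM-1 adhesion protein staining, with the hit upheld by image or statistical review; inactive means the rest, including hits rejected on review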;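 further: 0% = TNFa with vehicle and 100% = cells without TNFa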
An asterisk follows results filed as active; i = inactive; · = not tested or not shown.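 How the source made its calls, unless noted: active means mean above 30%; inconclusive means self-fluorescent; inactive means the rest.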

SMILES	VCAM-1 up imaging	FPRL1 binder	VCAM-1 imaging	FPR binder	VCAM-1 down
CCn1c(SCC(=O)c2ccc(C)cc2)nnc1-c1ccoc1C	i	-6	i	-1	i
O=C(CCN1C(=O)C2CC=CCC2C1=O)N1CCN(c2ccccn2)CC1 (stereo not drawn)	·	12	·	14	·
CC(NC(=O)c1ccco1)C(c1cccs1)N1CCN(c2ccccc2F)CC1 (stereo not drawn)	·	-1	·	-2	·
CC(C)(C)C1CCc2c(sc3c2C(=O)NC(c2ccco2)N3)C1 (stereo not drawn)	i	0	i	2	i
CCOC(=O)Cn1nnnc1C(C(C)C)N(Cc1cc2c(C)cc(C)cc2[nH]c1=O)C1CCCC1 (stereo not drawn)	i	-4	i	-2	i
C=CCn1cc(C(=O)OC)c(=O)c2cc(S(=O)(=O)N3CCC(C)CC3)ccc21	·	2	·	1	·
CC(C)(C)NS(=O)(=O)c1ccc(CCC(=O)O)cc1	i	0	i	-5	i
Cc1oc(C(=O)O)cc1CSCc1cc(C(=O)O)c(C)o1	i	10	i	-5	i
Cc1cccc(NC(=O)c2cc3ccccc3o2)c1	i	-6	i	-5	i
COc1ccc(C2CC(c3ccccc3)Nc3ncnn32)cc1 (stereo not drawn)	·	2	·	5	·

Record cards, from the list above. Order of values: VCAM-1 up imaging | FPRL1 binder | VCAM-1 imaging | FPR binder | VCAM-1 down
`CCn1c(SCC(=O)c2ccc(C)cc2)nnc1-c1ccoc1C` as listed: i | -6 | i | -1 | i
`C=CCn1cc(C(=O)OC)c(=O)c2cc(S(=O)(=O)N3CCC(C)CC3)ccc21` as listed: · | 2 | · | 1 | ·
`CC(NC(=O)c1ccco1)C(c1cccs1)N1CCN(c2ccccc2F)CC1` (stereo not drawn) as listed: · | -1 | · | -2 | ·
`Cc1cccc(NC(=O)c2cc3ccccc3o2)c1` as listed: i | -6 | i | -5 | i

The main list resumes, repeating the two entries before the break.
SMILES	VCAM-1 up imaging	FPRL1 binder	VCAM-1 imaging	FPR binder	VCAM-1 down
Cc1cccc(NC(=O)c2cc3ccccc3o2)c1	i	-6	i	-5	i
COc1ccc(C2CC(c3ccccc3)Nc3ncnn32)cc1 (stereo not drawn)	·	2	·	5	·
CCOC(=O)C1CCN(S(=O)(=O)c2ccc(-c3nc4ccccc4s3)s2)CC1	·	-7	·	-5	·
Cc1ccc(-c2nc(-c3cccnc3)no2)c(C)c1	i	0	i	1	i
Cc1ccc(C)c(Cn2c(=O)n(CCC(=O)NCc3ccco3)c(=O)c3ccccc32)c1	·	-4	·	7	·
O=C(c1ccc(Cl)c(Cl)c1)N1CCOCC1	i	-5	i	-8	i
CCOC(=O)c1ccc(-n2c(C)nc3c(cnn3-c3ccccc3C)c2=O)cc1	i	-6	i	-10	i
COc1cc(OC)c(NC(=O)c2ccco2)cc1Cl	i	0	i	0	i
CCN1CCN(C(=O)c2cn(CCOC)c(=O)c3c2c2ccccc2n3C)CC1	i	3	i	2	i
Nc1cc(C(=O)O)ccc1Nc1ccc(F)c(F)c1	i	1	i	-8	i
CCOc1ccc(-c2nc(C#N)c(N3CCN(C)CC3)o2)cc1	i	-7	i	20	i
COc1ccc(-c2cc(C(=O)NCc3ccccc3)no2)cc1OC	·	2	·	-2	·
Cc1sc(NC(=O)c2cccs2)nc1-c1ccccc1	·	-1	·	5	·
O=C(NCC(=O)N(Cc1cccs1)C(C(=O)NC1CCCC1)c1ccncc1)c1ccco1 (stereo not drawn)	i	-2	i	20	i
CCCCNC(=O)c1ccc(CS(=O)(=O)c2ccc(OC)cc2)o1	·	-4	·	-5	·
COC(=O)c1cc(=O)n(C2CC2)c(=NC2CC2)s1	·	-5	·	0	·
O=C(CCc1nc2ccccc2[nH]1)Nc1ccccc1	·	0	·	-7	·
CCn1nnc(NC(=O)c2cc3ccccc3o2)n1	i	9	i	-1	i
O=C(Nc1ccc(NC(=O)C2CC2)cn1)c1ccccc1Cl	i	4	i	-3	i
CCOc1ccccc1-n1c(SCC(=O)NC(C)CC)nnc1-c1ccoc1C (stereo not drawn)	i	-2	i	-3	i
Cc1csc(SCCn2c(N3CCCC3)nc3c2c(=O)[nH]c(=O)n3C)n1	i	-1	i	0	i
COc1ccc(-c2nc(CS(=O)CC(=O)N3CCCC3)c(C)o2)cc1 (stereo not drawn)	i	4	i	6	i
O=C(NCc1ccccc1)c1ccc(OC2CSC2)cc1	i	4	i	-2	i
CCc1cc2c(=O)c(-c3ccc4c(c3)OCCO4)coc2cc1OC(=O)c1ccco1	i	-2	i	-1	i
CCOC(=O)CSC1=Nc2ccccc2C2=NC(CC(=O)NCc3ccccc3)C(=O)N12 (stereo not drawn)	·	6	·	-1	·
Cc1cc(C)cc(NS(=O)(=O)c2ccc3[nH]cc(C(=O)NCc4ccco4)c(=O)c3c2)c1	i	3	i	16	i
CCN(CC)C(=O)CSc1ncnc2c1nnn2-c1ccc(F)cc1	·	0	·	-4	·
COc1ccc(NC(=O)CCc2nc(-c3ccccc3F)no2)cc1	i	-5	i	3	i
O=C(NCc1cccs1)c1cc2c(s1)-c1ccccc1OC2	i	-1	i	11	i
Cc1ccc(Nc2nc(CSc3nnnn3C)cs2)cc1	i	2	i	-8	i
CN(CC(=O)Nc1nccs1)S(=O)(=O)c1ccc(F)cc1	i	7	i	-4	i
CC(=O)N1CCc2cc(S(=O)(=O)N3CCOCC3)ccc21	·	2	·	0	·
CC(C)Oc1ccc(C(=O)N(CN2CCCC2=O)c2ccc(F)cc2)cc1	·	-2	·	-4	·
COc1ccc(CC(=O)Nc2ccc(N3CCN(c4ccc(OC)cc4)CC3)c(C#N)c2)cc1	·	17	·	-2	·
Cc1ccc(-n2c(Cc3cccn3C)nnc2SCC(N)=O)cc1	·	-4	·	-9	·
COc1ccc(CCn2c(C)cc(C(=O)CSc3nnnn3C)c2C)cc1	i	4	i	-6	i
CCOC(=O)c1cccnc1SCC(=O)N(C)c1ccccc1	·	0	·	3	·
CCS(=O)(=O)Nc1ccc(C(=O)CC2(O)C(=O)Nc3ccc(Br)cc32)cc1 (stereo not drawn)	·	7	·	-1	·
COCCOc1nc2ccccc2nc1C	i	16	i	12	i
Cc1cc(C)n(-c2ccc(C(=O)Oc3ccc4c(c3)OCO4)cc2)n1	i	4	i	8	i
COc1ccc(CC(=O)Nc2c3c(nn2-c2cccc(C)c2C)CS(=O)C3)cc1 (stereo not drawn)	·	4	·	1	·
COc1cc2c(cc1OC)C(C(=O)Nc1ccc3c(c1)OCCO3)C(c1cccnc1)N(C)C2=O (stereo not drawn)	·	12	·	2	·
Cc1oc(-c2ccc(Cl)cc2)nc1CN1CCC(C(=O)N2CCN(c3ccccn3)CC2)CC1	·	-2	·	-1	·
CCOc1ccc(S(=O)(=O)Nc2cc(Sc3ncn[nH]3)c3oc(=O)sc3c2)cc1	·	-1	·	7	·
Cc1sc2ncnc(OCC(=O)N3CCN(S(=O)(=O)c4ccc(Cl)cc4)CC3)c2c1C	i	-5	i	-7	i
CC(Sc1nnnn1C)C(=O)Nc1ccc(Oc2ccccc2)cc1 (stereo not drawn)	i	4	i	-5	i
COc1ccc(-c2nc(CN3CCC(C(=O)NC(C)C)CC3)c(C)o2)cc1OC	·	-2	·	-5	·
CCOC(=O)N1CCN(C(=O)CSc2nnc(-c3cccs3)o2)CC1	·	-6	·	-7	·
O=C(CCNS(=O)(=O)c1cccc2nsnc12)N1CC(=O)N(CCc2ccccc2)C(=O)C1	·	-3	·	-2	·
Cc1nc2ccc(S(=O)(=O)NCC(=O)N3CCN(c4ccccc4)CC3)cc2s1	·	-6	·	1	·
COc1ccccc1-n1c(SC)nc(O)cc1=O	·	-10	·	41*	·
O=C(c1cc2c(=O)oc3ccccc3c2s1)N1CCN(c2ccccn2)CC1	·	7	·	3	·
New compounds follow:
SMILES	VCAM-1 up imaging	FPRL1 binder	VCAM-1 imaging	FPR binder	VCAM-1 down
Cc1cc(C)c2nc(N3CCC(C(=O)N4CCN(c5ncccn5)CC4)CC3)sc2c1	·	-10	·	9	·
O=C(CCCNS(=O)(=O)c1cccs1)N1CCN(c2ccc(F)cc2)CC1	·	6	·	4	·
COc1cccc(C2C(C(=O)c3ccc(C)o3)=C(O)C(=O)N2CCCN(C)C)c1 (stereo not drawn)	i	7	i	6	i
CC(C)C(=O)Nc1nc2c(ncn2C2CC(O)C(CO)O2)c(=O)[nH]1 (stereo not drawn)	·	-3	·	2	·
Cn1c(=O)oc2cc(S(=O)(=O)N3CCC(N4CCCCC4)CC3)ccc21	·	4	·	-5	·
CC(C)=CC/C=C1\CCC(C(=O)O)C(C(=O)O)C1 (stereo not drawn)	i	-4	i	-4	i
CCCCn1c(NC(=O)c2ccccc2Cl)c(C#N)c2nc3ccccc3nc21	·	-1	·	3	·
COC(=O)c1[nH]nc2c1C(=O)N(Cc1ccccc1)C2=O	·	-1	·	-2	·
Cc1csc(NC(=O)c2cccc(S(=O)(=O)N3CCCCC3)c2)n1	i	4	i	0	i
Cc1cc2ccccc2n1CCNC(=O)c1ccc(S(=O)(=O)N2CCOCC2)cc1	i	4	118%	4	i
CCOC(=O)C1CCCN(c2c(NCCCN(C)c3ccccc3)c(=O)c2=O)C1 (stereo not drawn)	·	8	·	0	·
Cc1nc2ccccn2c1/C(O)=C1\C(=O)C(=O)N(CCN2CCOCC2)C1c1cccnc1 (stereo not drawn)	·	-4	·	-12	·
CC(=O)N(CC1CCCO1)C1(C(=O)NC2CCCC2)CCCCC1 (stereo not drawn)	·	4	·	-2	·
CCCCC(=O)N(c1ccc(C)c(C)c1)C1C=CS(=O)(=O)C1 (stereo not drawn)	·	0	·	2	·
CCOC(=O)CSc1nc2cc(C(=O)NCC3CCCO3)ccc2c(=O)n1Cc1ccco1 (stereo not drawn)	·	2	·	1	·
COc1ccc(N2CCN(CCNC(=O)CCS(=O)(=O)c3cccc4nsnc34)CC2)cc1	i	9	i	11	i
O=C(CN1CCOCC1)Nc1c2c(nc3c1CCC3)CCC2	·	4	·	7	·
O=C(NCC(c1cccnc1)N1CCN(c2ccc(F)cc2)CC1)c1ccc(F)cc1 (stereo not drawn)	i	-2	i	-3	i
COC(=O)c1cc(-c2c(C)oc3cc(O)ccc3c2=O)c(C)o1	i	-5	i	-2	i
CCn1c(SCC(=O)Nc2cc(NC(C)=O)ccc2OC)nnc1-c1ccccn1	i	-6	i	-7	i
CCOC(=O)CSc1nnc(CNC(=O)c2cc(OC)c(OC)c(OC)c2)n1C	·	-2	·	2	·
COc1ccccc1OCc1ccc(C(=O)Nc2ccncc2)o1	i	-4	i	-4	i
CC(C)C12CN3CC(C(C)C)(CN(C1)C3c1ccc3c(c1)OCO3)C2=O (stereo not drawn)	i	1	i	8	i
CCOC(=O)c1ccccc1NC(=O)Cn1cnc2c(cnn2-c2ccc(OC)cc2)c1=O	i	0	i	5	i
O=c1/c(=C/c2ccco2)sc2nc(-c3ccccc3Br)nn12	i	0	i	2	i
CCn1cc(C(=O)N2CCN(C(=O)c3ccco3)CC2)c2cc(OC)c(OC)cc2c1=O	i	1	i	3	i
CS(=O)(=O)N1CCN(CC2CC3C=CC2C3)CC1 (stereo not drawn)	i	-5	i	1	i
C=CCc1ccccc1OCC(O)CN(C(C)C)C(C)C (stereo not drawn)	·	-3	·	-2	·
CCc1ccccc1N(CC)C(=O)c1cn(CC)c(=O)c2cc(OC)c(OC)cc12	·	2	·	2	·
Cc1ccc(S(=O)(=O)NCC(=O)N(CC(=O)NCc2ccccc2)CC2CCCO2)cc1 (stereo not drawn)	i	1	i	8	i
CC(C)Nc1nc(NC(C)C)nc(Oc2ccc(/C=N/O)cc2)n1	·	-2	·	-1	·
CC(=O)NC(CCS(C)(=O)=O)C(=O)Nc1cccc2ccccc12 (stereo not drawn)	i	1	i	-6	i
CCOc1ccc(CCNC(=O)C2CCCN(S(=O)(=O)c3c(C)n[nH]c3C)C2)cc1OCC (stereo not drawn)	·	-3	·	2	·
O=C(CCCc1cccs1)Nc1nc2c(s1)CCCC2	i	-2	i	2	i
Cc1ccc(-c2nnc3c4ccccc4c(C)nn23)cc1NC(=O)c1ccco1	i	4	i	9	i
COc1ccc(C2C(C(=O)Nc3ccccc3)=C(C)Nc3nc(CCCO)nn32)cc1 (stereo not drawn)	·	-2	·	1	·
CCCOc1ccc(/C(O)=C2\C(=O)C(=O)N(CCCOC)C23C(=O)N(C)c2ccccc23)cc1 (stereo not drawn)	·	0	·	1	·

Some of the compounds tested; rates above refer to the full screens.
